RmlC RmlD mix = inhibitors of RmlC and RmlD coupled enzymes | RmlC/RmlD coupled enzyme inhibition, 384-well mixture HTS | inhibition, % at 5.5 µM | hit rate 0.39% among 110,000 | AID 1532; in the data active means inhibition above about 30%, passing the limit was not always enough; only retested compounds are shown here; further: strong numbers were not always called active
RmlC RmlD mix retest = recorded beside RmlC RmlD mix, whose call it bears; inhibition, %; measured here: mean retest inhibition;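 single compounds in two wells; values far above 100% likely come from compound fluorescence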
* hit, by the source's call; i = inactive; / = no result given.

The first 4 records as a preview:
SMILES	RmlC RmlD mix	RmlC RmlD mix retest
Cc1cc(NC(=O)CN2CCOCC2)n(-c2nc3ccccc3s2)n1	45	-4
Cc1cc(NC(=O)CSc2cn(CCNC(=O)c3ccc(F)cc3)c3ccccc23)no1	116	-14
COc1ccc(C)cc1NC(=O)Nn1cnnc1	71	-15
COC(=O)C1CC(O)CN1C(=O)c1ccco1 (stereo not drawn)	83	4

All compounds of this part, from the start:
SMILES	RmlC RmlD mix	RmlC RmlD mix retest
Cc1cc(NC(=O)CN2CCOCC2)n(-c2nc3ccccc3s2)n1	45	-4
Cc1cc(NC(=O)CSc2cn(CCNC(=O)c3ccc(F)cc3)c3ccccc23)no1	116	-14
COc1ccc(C)cc1NC(=O)Nn1cnnc1	71	-15
COC(=O)C1CC(O)CN1C(=O)c1ccco1 (stereo not drawn)	83	4
O=C(Nc1sc2c(c1C(=O)O)CCCC2)c1cccs1	85	14
CCCn1c(=O)c2ccccc2n2c(SCCOc3ccccc3)nnc12	44	-3
c1ccc(CCc2nc(-c3ccccn3)no2)cc1	54	-15
Cc1cccc(CS(=O)(=O)Cc2ccc(C(=O)NCc3cccnc3)o2)c1	147	-4
CCCCn1c(N(CCOC(C)=O)C(C)=O)nc2ccccc21	79	-10
Cc1cc(N2CCC(C)CC2)c(F)cc1[N+](=O)[O-]	106	-11
CC(C)C(C(=O)O)N1C(=O)/C(=C/C=C/c2ccco2)SC1=S (stereo not drawn)	59	16
Cc1cc(C)cc(NC(=O)CCNS(=O)(=O)c2ccc3c(c2)oc(=O)n3C)c1	31	-6
COc1ccc2cc3cc(C(=O)NCC4CCCO4)oc3nc2c1 (stereo not drawn)	105*	/
Cc1cccc(-n2c(=O)c(C#N)cc3c(=O)n4ccccc4nc32)c1	83*	119*
CC(C)N=c1cc2n(-c3ccc(Cl)cc3)c3ccccc3nc-2cc1Nc1ccc(Cl)cc1	38	-17
Cc1ccc(C(N)=S)c(C)c1	97	-8
CCCCNc1nc(CC(C)=O)ns1	103	-9
Cc1onc(-c2ccccc2)c1C(=O)NCCc1ccc(S(N)(=O)=O)cc1	35	-2
O=C(O)CCCCCN1C(=O)c2ccc(C(=O)O)cc2C1=O	115	1
Cc1c(C(=O)N(C)C)sc2nc(-c3ccccn3)[nH]c(=O)c12	76	30
COC(=O)CN(C)C1CC(=O)N(c2ccc(Cl)cc2)C1=O (stereo not drawn)	36	-8
Cc1cc2c3c(c1)C(C)(c1ccccc1)CC(C)(C)N3C(=O)C21C(C#N)=C(N)OC2=C1C(=O)CC(C)(C)C2 (stereo not drawn)	111	7
Cc1nnc(SCC(=O)Nc2sc3c(c2C(N)=O)CCCC3)[nH]c1=O	58	-2
COC(=O)/C(=C/Nc1cccc2ccccc12)[N+](=O)[O-]	158*	/
CCOC(=O)c1nn(-c2ccc(F)cc2)c2nc(CC(C)C)c(C#N)c(=O)n12	51*	101*

Given as labelled records: three of the compounds above.
Cc1cc(NC(=O)CSc2cn(CCNC(=O)c3ccc(F)cc3)c3ccccc23)no1
  RmlC RmlD mix: 116	RmlC RmlD mix retest: -14

CCCCn1c(N(CCOC(C)=O)C(C)=O)nc2ccccc21
  RmlC RmlD mix: 79	RmlC RmlD mix retest: -10

Cc1cccc(CS(=O)(=O)Cc2ccc(C(=O)NCc3cccnc3)o2)c1
  RmlC RmlD mix: 147	RmlC RmlD mix retest: -4

The results go on.
SMILES	RmlC RmlD mix	RmlC RmlD mix retest
COc1cccc(OCCSc2nc(N)cc(N)n2)c1	31	-7
CC1(C)Cc2ccccc2-c2nnc(SCc3ccc(C#N)cc3)n21	40	-6
CCOc1cc2c3c(c1)C1(C(=O)N3C(C)(C)C=C2C)C(C#N)=C(N)Oc2cc(O)ccc21 (stereo not drawn)	117	3
COc1ccccc1OCCCn1c(C)c(C#N)c2ccccc21	30	-13
O=C(CN1CCSCC1)N/N=C/c1ccccc1F	36	11
N/C(Cc1ccc(Cl)cc1)=N\OC(=O)c1ccccc1	107	-6
N#Cc1c(-c2cccs2)cc(-c2cccnc2)nc1N	47	-75
O=c1[nH]c(-c2ccccn2)nc2ccccc12	40	-12
CCCOc1ccc(N2C(=O)C3ON(c4ccccc4)C(CCC)C3C2=O)cc1 (stereo not drawn)	60	-9
Cc1ccc(CNC(=O)c2ccc(Br)o2)cc1	36	1
N#Cc1cccc(NC(=O)CSc2ccccc2)c1	77	11
OC1CCN(Cc2cccc(Oc3ccccc3)c2)CC1	49	-8
Nc1cccc(-c2nc3cc(S(=O)(=O)c4ccc5oc(-c6cccc(N)c6)nc5c4)ccc3o2)c1	46*	198*
COc1ccc2oc(C)c(NC(C)=O)c2c1	82	6
Cc1ccc(S(=O)(=O)N[C@H](C(=O)Oc2ccc3c(C(F)(F)F)cc(=O)oc3c2)c2ccccc2)cc1	101*	83*
Cc1ccc(NC2c3ccccc3C(=O)N2CCN2CCOCC2)cc1 (stereo not drawn)	173	-13
CCC1=NN2C(=N)/C(=C\c3ccc(SCc4ccco4)o3)C(=O)N=C2S1	84	12
Clc1ccc2nc(-c3ccc(Br)s3)cn2c1	104	-10
O=C(CCN1C(=O)c2ccccc2C1=O)N1CCN(c2ccccn2)CC1	37	10
COC(=O)C1=C(C)N(C)C(C)=C(C(=O)OC)C1c1ccsc1	58	5
CCCn1c(N)nc2ccccc21	45	-5
C=CCn1c2ccccc2c2nnc(SCCCn3c(=O)[nH]c4ccccc43)nc21	71*	85*
CCOc1cccc(C2C(C(=O)c3ccc(C)o3)=C(O)C(=O)N2Cc2ccncc2)c1 (stereo not drawn)	i	5
O=C(CSc1nc2ccccc2s1)N1CCN(C(=O)c2ccco2)CC1	41	0
CCOC(=O)C1=C(C)Nc2nc(C)nn2C1c1cc(OC)ccc1OC (stereo not drawn)	38	6

Gathered by group, the compounds so far containing an aryl thioether with sulfur outside any ring.
SMILES	RmlC RmlD mix	RmlC RmlD mix retest
Cc1cc(NC(=O)CSc2cn(CCNC(=O)c3ccc(F)cc3)c3ccccc23)no1	116	-14
CCCn1c(=O)c2ccccc2n2c(SCCOc3ccccc3)nnc12	44	-3
Cc1nnc(SCC(=O)Nc2sc3c(c2C(N)=O)CCCC3)[nH]c1=O	58	-2
COc1cccc(OCCSc2nc(N)cc(N)n2)c1	31	-7
CC1(C)Cc2ccccc2-c2nnc(SCc3ccc(C#N)cc3)n21	40	-6
N#Cc1cccc(NC(=O)CSc2ccccc2)c1	77	11
CCC1=NN2C(=N)/C(=C\c3ccc(SCc4ccco4)o3)C(=O)N=C2S1	84	12
C=CCn1c2ccccc2c2nnc(SCCCn3c(=O)[nH]c4ccccc43)nc21	71*	85*
O=C(CSc1nc2ccccc2s1)N1CCN(C(=O)c2ccco2)CC1	41	0

Following part.
SMILES	RmlC RmlD mix	RmlC RmlD mix retest
CN(c1ccc(S(=O)(=O)N2CCOCC2)cn1)C1CCCCC1	84	0
N#Cc1nc(-c2cccs2)oc1NCc1ccccc1	47	-376
CN(C(=O)c1ccncc1)c1nnc(-c2ccncc2)s1	103*	148*
O=C(c1cccc(Cl)c1)N1CCCC(c2ccc(Cl)cc2)=N1	39	-12
O=C(O)c1ccccc1NCN1C(=O)C2CC=C(Cl)CC2C1=O (stereo not drawn)	37*	70*
CCOC(=O)CC(=O)CSc1nc2c(cc1C#N)CCCCCC2	64*	/
O=C(Nc1ccccc1N1CCN(c2ccc(F)cc2)CC1)C12CC3CC(CC(C3)C1)C2	39	-3
O=C(CSc1nnc(-c2ccco2)o1)N1c2ccccc2CCc2ccccc21	131	-1
CCOC(=O)CC(=O)CSc1nc2c(cc1C#N)CCCCC2	76	144
CCOC(=O)N1CC=C2C(C#N)=C(N)C(C#N)(C#N)[C@H](c3cccs3)[C@H]2C1	34	2
O=C(OC1CCOC1=O)c1ccc(-c2nc3ccccc3s2)s1 (stereo not drawn)	32	14
CC(=C1C(=O)c2ccccc2C1=O)N1CCN(C/C=C/c2ccccc2)CC1	108	2
CCOC(=O)CC(=O)CSc1nc(C)cc(C)c1C#N	110*	173*
COc1ccc2oc(=O)c(C(=O)n3ccc(C)n3)cc2c1	111*	131*
N#Cc1ccc(-c2nnnn2-c2ccc3c(c2)OCO3)cc1	116	29
CC(CNc1ccc([N+](=O)[O-])cc1)NC(=O)c1ccccc1Br (stereo not drawn)	38	7
CCc1cc2c(cc3c(=O)n(CC(=O)NCCCN(CC)CC)nc(CC)n32)s1	110	1
Cc1noc(C)c1COc1ccc(C(=O)OCC(=O)N2CC3(C)CC2CC(C)(C)C3)cc1 (stereo not drawn)	38	-10
O=C1COc2ccc(C(=O)NCc3ccc4c(c3)OCO4)cc2N1	105	5
COc1cc(NC(=O)c2cccs2)c(C(=O)OCC(=O)NCc2ccccc2)cc1OC	45*	71*
C=C(C)CN(CC)C(=O)COc1ccc(S(=O)(=O)Nc2ccc(OC)cc2)cc1	53	-1
CN1CCN(S(=O)(=O)c2cccc(S(=O)(=O)c3ccc(Cl)cc3)c2)CC1	i	-26
CCOC(=O)Cc1csc(NC(=O)CCCCCN2C(=O)c3ccccc3C2=O)n1	54	-8
Oc1ccc(N2CCN(C(c3ccccn3)c3nnnn3C3CCCC3)CC2)cc1 (stereo not drawn)	54	-7
Cc1oc2cc(O)ccc2c(=O)c1Oc1ccccc1	67	64

Continued:
SMILES	RmlC RmlD mix	RmlC RmlD mix retest
CCc1ccc(NC(=O)CCn2ccnc2C)cc1	144	-9
COc1ccc2c(c1)cc(C)c1nnc(SCC(=O)N3CCN(C(=O)c4ccco4)CC3)n12	135	9
COc1ccc2c(c1)c1ncn(CCc3ccccc3)c(=O)c1n2C	106	-135
O=C1CN(C(=O)CSc2nnc(-c3ccccc3)n2Cc2ccc3c(c2)OCO3)c2ccccc2N1	154	-11
COc1ccc(NC(=O)CSc2ncnc3c2cnn3CCc2ccccc2)cc1	151	-10
CS(=O)(=O)N(CC(=O)NCCC1=CCCCC1)C1CCCCC1	52	-1
CC1=CC(=C2C(=O)NC(=O)NC2=O)C=C(C(F)(F)F)N1C(C)C	31	6
COC(=O)N(c1ccccc1)P1(=S)OCCO1	66	-6
C=CCN1C(=O)C(Cc2ccc(OC)cc2)S/C1=N/N=C/c1ccco1 (stereo not drawn)	110	-14
Cc1ccc(C(=O)NCc2occc2C(=O)O)o1	110	-11
Cc1nc2ccc(F)cc2cc1C(=O)NCc1ccco1	115	-12
O=C(NCCN1CCOCC1)c1ccc(=O)oc1	43*	33*
Cc1ccc2nc(SCC(=O)N(CC(C)C)c3c(N)n(CC(C)C)c(=O)[nH]c3=O)[nH]c2c1	34	-4
CC(=O)Oc1c(Cl)c(N2CCOCC2)c(OC(C)=O)c2ccccc12	40	-1
COC(=O)CNc1nc(C2CC2)nc2c1nnn2Cc1ccccc1Cl	30	3
COc1ccc(C2C=C(c3ccccc3)Nc3nc(NC(C)=O)nn32)cc1 (stereo not drawn)	40*	80*
Cn1c(N2CCN(C(=O)Nc3ccc(C(F)(F)F)cc3)CC2)nc2ccccc21	i	-10
O=C(CN1CC(=O)Oc2ccccc21)OCC(=O)c1ccc(Br)cc1	i	-1
COC(=O)CC(=O)CSc1nc2c(cc1C#N)CCCCC2	138*	/
COc1ccc(C(=O)Nc2sc3c(c2C(=O)NCc2ccco2)CCCC3)cc1OC	146*	/
Cc1ccc(O)c(-c2cc3ccccc3[nH]2)c1	44	-16
Cn1c(=O)c2c(nc(-n3ccnc3)n2Cc2ccccc2)n(C)c1=O	88	-8
O=C1Nc2ccc(Br)cc2/C1=N/N=C/C1=C(N2CCOCC2)C(=C\c2ccccc2)/CC1	30	16
CC(=O)c1ccc2c(c1)C1C=CCC1C(c1ccncc1)N2 (stereo not drawn)	58	2
Cc1cc(C)c(C)c(S(=O)(=O)NCC(=O)N2CCCC2)c1C	89	-6

(listing goes on)
SMILES	RmlC RmlD mix	RmlC RmlD mix retest
COc1ccc(CN2C(=O)CN(C3CCCCCC3)C(=O)C2c2ccc(F)cc2)cc1 (stereo not drawn)	70	-11
CCOC(=O)c1[nH]c2ccc(OC)cc2c1NC(=O)CN1CCC2(CC1)OCCO2	34	9
CCOC(=O)c1[nH]c(C)c(C(=O)NCc2ccccn2)c1C	41	-5
O=S(=O)(c1cccc(Cl)c1Cl)N1CCCCC1	53	-3
Nc1ccccc1C(=O)N(Cc1ccccc1)Cc1ccccc1	102	-5
CCOC(=O)N1CCN(S(=O)(=O)c2ccc(C)c(C)c2C)CC1	73	-3
CCN1CCN(c2ncc(C(=O)Nc3c(F)cc(F)cc3Br)c3ccccc23)CC1	40	-6
CC(=O)Nc1ccc(S(=O)(=O)c2c(N)n(CCN3CCOCC3)c3nc4ccccc4nc23)cc1	35	16
CCOC(=O)c1cc2sccc2n1CC(=O)OC(C)C	36	-2
COCCNC(=O)c1cc(Br)ccc1Cl	33	-7
COc1ccc(NC(=O)OC(C)C)cc1	34	-11
COc1ccc(CC(=O)Nc2cccc(-c3nnc(-c4cccc(C)c4)o3)c2)cc1OC	71	-15
COc1ccc(OC)c(S(=O)(=O)Nc2ccccc2C(=O)O)c1	105	-11
COc1ccc(CCC(=O)Nc2ccc(-c3noc(-c4ccc(OC)c(OC)c4)n3)cc2)cc1	31	3
O=C(O)CCc1ccc(-c2ccc(F)cc2)n1CC1CCCO1 (stereo not drawn)	64	8
Cc1cc(C#N)c(C)c(SCc2[nH]nc3c2C(c2ccccc2)C(C#N)=C(N)O3)n1 (stereo not drawn)	38	-2
O=C1OC(=O)C2C1[C@@H]1CC[C@H]2O1 (stereo partly drawn)	52	-9
CCOC(=O)c1c(-c2ccsc2)csc1N	50	-10
CCCC(=O)OCC(=O)Nc1cc(C(C)(C)C)nn1-c1ccccc1	105	6
CCOc1cc(-c2noc(CCC(=O)N3CCOCC3)n2)ccc1OC	123	0
OC(CN1C2=NCCN2c2ccccc21)c1ccc2c(c1)OCO2 (stereo not drawn)	36	3
Clc1ccc(OCc2cc(-c3ccccc3)no2)cc1Cl	34	-6
Cc1ccc(OCCN2C(=O)OC(C)(C)C2(C)O)cc1 (stereo not drawn)	48	-8
COc1cccc(C2=NO[C@@H]3C(=O)N(c4ccc5c(c4)OCCO5)C(=O)[C@H]23)c1OC	47	-9
COc1ccc(-c2nc(C#N)c(N3CCC(C(N)=O)CC3)o2)cc1OC	41*	60*
N=C1C(c2ccccc2)=C(O)CN1c1ccc2c(c1)OCO2	33	13

Compound activity from PubChem.

This is a subset; count on the stated rates, not on these rows.
